CtBP-E1A inh: CtBP/E1A binding inhibition. AlphaScreen GST-E1A/His-CtBP binding, 1536-well; stronger effect = lower value; control for the full effect not named in the record. activity change, % (concentration not given with the values). 340,000 compounds, 0.49% hits. AID 651724; in the data active means activity change below about -65%; inconclusive means about -30% to -65%; inactive means above about -30%; note: % is set by controls: 0 for no effect and ±100 for the full control effect
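Homogeneous bead-based format: GST-tagged E1A captured on glutathione donor beads, His-tagged CtBP on nickel acceptor beads; compounds precede bead addition by 2 h at 37 °C.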
Six1-Eya2 blk: blocks human Six1 binding to Eya2; AlphaScreen GST-Six1/His-Eya2 binding, biochemical; stronger effect = lower value; control for the full effect not named in the record; activity change, % (concentration not given with the values); Q15475+O00167; 360,000 compounds, 0.56% hits; in the data active = activity change below about -65%; inconclusive = about -30% to -65%; inactive = above about -30%; note: % is set by controls: 0 for no effect and ±100 for the full control effect
Target sequence (O00167 whole entry, looked up): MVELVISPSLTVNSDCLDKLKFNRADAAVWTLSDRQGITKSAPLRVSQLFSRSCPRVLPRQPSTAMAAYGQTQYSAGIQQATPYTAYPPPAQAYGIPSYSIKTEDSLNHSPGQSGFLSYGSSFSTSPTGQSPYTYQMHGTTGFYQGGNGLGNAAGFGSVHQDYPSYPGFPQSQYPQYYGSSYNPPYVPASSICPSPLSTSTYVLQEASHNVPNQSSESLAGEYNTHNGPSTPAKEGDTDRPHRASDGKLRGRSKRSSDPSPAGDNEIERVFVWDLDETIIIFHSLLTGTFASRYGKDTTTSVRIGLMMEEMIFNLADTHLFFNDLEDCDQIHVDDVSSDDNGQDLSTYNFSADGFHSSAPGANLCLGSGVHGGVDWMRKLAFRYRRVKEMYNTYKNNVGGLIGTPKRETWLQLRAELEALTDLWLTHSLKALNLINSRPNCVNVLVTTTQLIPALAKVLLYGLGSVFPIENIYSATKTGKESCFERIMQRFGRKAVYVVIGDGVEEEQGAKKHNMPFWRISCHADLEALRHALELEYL
Target sequence (Q15475 whole entry, looked up): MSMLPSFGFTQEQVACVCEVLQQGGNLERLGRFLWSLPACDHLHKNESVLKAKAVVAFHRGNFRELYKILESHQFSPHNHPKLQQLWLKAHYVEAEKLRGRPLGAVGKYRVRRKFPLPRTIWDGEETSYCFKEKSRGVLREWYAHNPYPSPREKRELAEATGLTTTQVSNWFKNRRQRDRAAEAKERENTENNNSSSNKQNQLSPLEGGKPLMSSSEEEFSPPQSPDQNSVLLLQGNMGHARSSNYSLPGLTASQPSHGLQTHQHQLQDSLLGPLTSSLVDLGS
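Homogeneous AlphaScreen proximity assay pairing GST-Six1 with His-tagged Eya2 (added as 5X mix: 250 nM and 500 nM) in 50 mM Tris pH 8.0, 300 mM NaCl, 1 mM TCEP. Glutathione donor and nickel acceptor beads; 1 h, 37 °C, dark.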
TRPML1 agonist: activates the human TRPML1 channel; Q9GZU1; TRPML1-expressing cells, Ca2+ dye fluorescence, FDSS; host cell line not named in the record; reference of the full effect not given here; activation, % (concentration not given with the values); 410,000 compounds, 0.12% hits; in the data active = activation above about 50%; inconclusive = about 30% to 50%; inactive = below about 30%; note: 0% is about no effect; the text of the record puts the active cut at 80%
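Agonist activity was taken from a 110 s kinetic Ca2+ dye read on the FDSS after pinning compounds onto TRPML1-DL cells. The cells were seeded at 1,500/well with Tet inducer, incubated about 16 h, then dye-loaded at room temperature.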
D2 ag: activates the human D2 dopamine receptor; DiscoveRx PathHunter D2 beta-arrestin, luminescence, 90 min; 100% = 57 uM dopamine signal; AID 624465; P14416; activation, % (no concentration beside the values); 360,000 compounds, 0.084% hits; in the data active = activation above about 40%; inconclusive = about 15% to 40%; inactive = below about 15%; note: compound concentration not given in the record; the text of the record calls up to 30% inactive
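Agonist mode: compounds alone added to overnight-plated D2 PathHunter cells for 90 min at 37 C, with 57 uM final dopamine (EC100) defining full response. Beta-arrestin recruitment detected by chemiluminescent reagent, read after 1 h at ambient temperature.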
D2 PAM: human D2 receptor positive allosteric modulation. P14416. DiscoveRx D2 beta-arrestin cells, luminescence, 90 min; 100% = 57 uM dopamine signal. potentiation, % (concentration not given with the values). 360,000 compounds, 0.23% hits. AID 624464; active = potentiation of 50% or more; inconclusive = 30% to 50%; inactive = 30% or less;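 note: tested on top of an EC20 dose of dopamine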
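PathHunter beta-arrestin assay in DiscoveRx D2 cells. Compounds were added with an EC20 of dopamine (50 nM final) for 90 min at 37 deg C. Luminescence was read 1 h after detection reagent, with 57 uM dopamine as the EC100 control.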
PINK1 modulator: changes PINK1 expression; PINK1 immunofluorescence, high-content cytometry, 24 h; Potency, µM (series often up to 76.6 µM), inactives show at the top dose activation (PINK1 increase), hits mostly activators; 410,000 compounds, 0.2% hits; active = well fitted activation curve with a large enough effect; inconclusive = small, poorly fitted or top-dose-only effect; inactive = flat fitted curve, though single readings scatter; cell line not stated here;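 note: potency is the fitted concentration of half-maximal effect; % of control where 0% means no effect; nearly all actives have a fitted effect of over 65% in size; a mitochondrial uncoupler was the plate control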
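Measures PINK1 amount and localization on or inside mitochondria by immunofluorescence. Stable cells get compounds at 5 concentrations for 24 hours before fixation and staining; CCCP controls included.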
* hit, by the source's call; ? = inconclusive; nt = no result given; [ ] = another dose, or the depositor's remark.

Values in the order – CtBP-E1A inh, Six1-Eya2 blk, TRPML1 agonist, D2 ag, D2 PAM, PINK1 modulator
[1] S=C(Nc1ccc(Oc2ccccc2)cc1)NC1CCCCC1
  -6, -8, 0.1, -0.4, 1, -0.3%
[2] COc1ccc(CN2C(=O)C(O)(CC(=O)c3c(C)n[nH]c3C)c3ccccc32)cc1OC (configuration not stated)
  13, 2, 0.1, -2.7, -4, 1.1%
[3] CCOC(=O)[C@]12CCC=C1N(Cc1ccc(Cl)cc1Cl)C(=O)[C@H](CC(=O)NCc1cccc3ccccc13)C2
  -1, -16, 0.0, nt, nt, -0.7%
[4] Cn1c(=S)[nH]c2ccccc21
  5, -1, -0.7, -2.2, -8, -2.5%
[5] Cc1c(NC(=O)CSc2nnc(-c3ccncc3)n2C)c(=O)n(-c2ccccc2)n1C
  0, 11, 0.2, -2.0, -11, 1.4%
[6] O=C(O)CCC(=O)Nc1ccc(Sc2ccc([N+](=O)[O-])cc2)cc1
  -3, -3, -0.1, -0.1, 18, -1.6%
[7] O=C(Nc1cccnc1Cl)C1=NN(c2ccccc2)C(=O)CC1
  -2, -1, -1.0, -3.8, -11, 1.5%
[8] O=C(O)c1ccc(NC(=O)C2C3CCC(O3)C2C(=O)O)cc1 (configuration not stated)
  11, 0, -0.5, -4.8, 0, 2.6%
[9] CC(C)C[C@H]1CNC(=O)C(=O)N1C[C@H](Cc1ccc(O)cc1)NC(=O)CC12CC3CC(CC(C3)C1)C2
  1, 1, -0.9, nt, nt, 0.8%
[10] O=C(NNC(=S)Nc1ccccc1)c1cccnc1
  5, 9, -0.7, -4.0, -6, -0.5%
[11] CCN(C(=O)COC(=O)c1ccc2ccccc2c1)c1c(N)n(Cc2ccccc2)c(=O)[nH]c1=O
  nt, 4, 1.6, -2.5, 0, -0.2%
[12] C(#Cc1ccccc1)C[N+]1(CC#Cc2ccccc2)CCCC1
  1, 4, 0.5, -2.9, -25, -0.3%
[13] Cc1cc(C(=O)Cn2nc(C(=O)O)c3ccccc3c2=O)c(C)n1-c1ccccc1
  -28, -18, 0.9, -1.7, -11, 1.4%
[14] O=C(CCS(=O)(=O)c1ccc(Br)s1)Nc1ccccc1Br
  2, 2, 1.6, -2.1, -8, -1.7%
[15] O=C1C=C(c2ccccc2)CC(/C=C/c2ccccc2)C1 (configuration not stated)
  16, 0, 2.7, -4.3, 1, 4.7%
[16] O=C(NNC(=O)c1cc(-c2cccnc2)nc2ccccc12)Nc1ccc(Cl)cc1
  1, -8, 0.2, -1.8, -26, 30%
[17] CCOC(=O)CN1C(=O)CSc2ccccc21
  8, 7, 1.5, -0.1, -5, 21%[38.3 µM]
[18] Cc1cc(C)nc(Nc2nc(C(N)c3ccccc3)cs2)n1 (configuration not stated)
  -67*, -69*, -0.3, -3.5, -11, 5.4%
[19] COC(=O)N/N=C(\C)c1cccs1
  -20, -6, 0.0, -6.0, -9, 0.7%
[20] COCCn1c(Cc2ccccc2)nnc1SCC(=O)N1CCCCC1C (configuration not stated)
  6, 0, -0.1, -1.5, 8, -0.5%
[21] Cc1ccc(NC(=O)Cn2nnc3ccccc3c2=O)cc1C
  -3, 14, 0.2, -5.5, -13, 0.9%
[22] Cc1ccc(C(=O)N/C(=C/c2ccco2)C(=O)NC2CCS(=O)(=O)C2)cc1 (configuration not stated)
  -1, 6, 0.8, -1.0, -4, -2.8%
[23] CCOC(=O)C1(Cc2ccc(Cl)cc2)CCN(C(=O)c2cc(C)nc(C)n2)CC1
  -3, 5, -0.2, 2.0, -2, -0.9%
[24] CCOC(=O)CNC=C(C(=O)OCC)C(=O)OCC
  -1, 13, 1.4, -2.0, 8, 2.7%
[25] COc1ccc(C(=O)C2CCN(CC(=O)Nc3ccc(C)cc3)CC2)cc1
  0, 6, 0.4, -6.8, -17, 0.2%
[26] O=C(NC1CCCC1)C1CCCN1C(=O)Nc1ccc(Cl)cc1 (configuration not stated)
  3, 1, 0.9, -4.0, -1, 7.3%
[27] CC(=O)c1c(C)[nH]c(C(=O)NCC2CCCCC2)c1C
  14, -3, 0.2, -3.9, -4, 4.5%
[28] COc1ccc(CNC(=O)c2ccc(NC(=O)CC3SC(N4CCCCC4)=NC3=O)cc2)cc1 (configuration not stated)
  0, 4, -0.4, 1.2, -2, -0.7%
[29] CCCN(CC(=O)Nc1ccc(C)cc1Br)CC(=O)Nc1ccc(F)c(F)c1F
  -2, 0, 0.2, -5.9, -27, ?
[30] COC(=O)C1CSC(C(=O)OC)N1C(=O)Nc1ccc(Cl)cc1 (configuration not stated)
  1, 14, -0.1, -0.4, -4, -3.4%
[31] O=c1c2ccccc2nc(/C=C/c2cccnc2)n1CCc1ccccc1
  2, -14, 0.9, -3.8, -9, -0.3%
[32] Cc1cc(C)n2cc(CSC3=NCCS3)nc2n1
  -4, 6, 0.0, 0.5, -2, 1.0%
[33] CSc1cccc(NC(=S)N2CCCN(Cc3cccc(Cl)c3)C2)c1
  -19, -11, -0.7, -0.2, -23, 18%
[34] CC1C(=O)C(C)C(c2cccs2)NC1c1cccs1 (configuration not stated)
  11, 14, 2.0, -2.7, -17, -1.3%
[35] COC(=O)c1ccc(N2C(=O)c3cc(N4CCOCC4)c([N+](=O)[O-])cc3C2=O)cc1
  -5, 6, -0.4, -1.4, -12, -0.5%
[36] O=C(Nc1ccc2c(c1)OCCO2)C1c2ccccc2C(=O)N2CCc3ccccc3C12 (configuration not stated)
  8, -4, -0.4, -2.6, -5, 2.4%
[37] CCOC(=O)CSc1nc2c(sc(=S)n2-c2ccccc2)c(=O)[nH]1
  -4, -4, 1.0, 1.9, 3, 1.4%
[38] O=C(NNC(=O)c1cc(-c2ccc(Br)cc2)nc2ccccc12)c1csc(N2CCOCC2)n1
  nt, 1, -0.4, -2.4, -4, 3.1%
[39] COc1ccc(NC(=O)c2cc(C3CCCCN3C(=O)c3ccccc3)on2)c(C)c1 (configuration not stated)
  0, 0, 0.6, -3.0, -15, 0.4%
[40] COc1ccc(CN(C)C(=O)c2cc(-c3ccc(OC)c(OC)c3)nc3ccccc23)c(OC)c1
  -8, -17, 0.7, 14, -36, -0.8%
[41] CCN(CC)c1ccc(C(=O)OCC(=O)NCC2CCCO2)cc1 (configuration not stated)
  6, 0, 0.0, -2.9, -6, nt
[42] Cc1cccc(NS(=O)(=O)c2ccc(C)c(C(=O)N(C)C)c2)c1
  5, 2, 0.7, 2.4, 7, 0.0%
[43] Cc1ccc(CNC(=O)COC(=O)C2CC2)cc1
  nt, 2, -0.6, 0.2, 1, 0.4%
[44] COc1ccc(NC(=O)C2c3cc(OC)c(OC)cc3C(=O)N(C)C2c2cccnc2)cc1OC (configuration not stated)
  1, -2, -0.2, -1.3, 4, 0.4%
[45] CCOc1ccc(NC(=O)CN(C)C(=O)CSc2ccccc2)cc1OCC
  5, -17, -1.0, -8.4, -21, 4.1%

Sorted by the number under CtBP-E1A inh (descending): 4 of the compounds above
entry | mol | CtBP-E1A inh
17 | CCOC(=O)CN1C(=O)CSc2ccccc21 | 8
3 | CCOC(=O)[C@]12CCC=C1N(Cc1ccc(Cl)cc1Cl)C(=O)[C@H](CC(=O)NCc1cccc3ccccc13)C2 | -1
33 | CSc1cccc(NC(=S)N2CCCN(Cc3cccc(Cl)c3)C2)c1 | -19
19 | COC(=O)N/N=C(\C)c1cccs1 | -20

Four compounds already listed, ordered by number of heavy atoms, smallest number first:
Values in the order – CtBP-E1A inh, Six1-Eya2 blk, TRPML1 agonist, D2 ag, D2 PAM, PINK1 modulator
[41] CCN(CC)c1ccc(C(=O)OCC(=O)NCC2CCCO2)cc1 (configuration not stated)
  6, 0, 0.0, -2.9, -6, nt
[45] CCOc1ccc(NC(=O)CN(C)C(=O)CSc2ccccc2)cc1OCC
  5, -17, -1.0, -8.4, -21, 4.1%
[36] O=C(Nc1ccc2c(c1)OCCO2)C1c2ccccc2C(=O)N2CCc3ccccc3C12 (configuration not stated)
  8, -4, -0.4, -2.6, -5, 2.4%
[40] COc1ccc(CN(C)C(=O)c2cc(-c3ccc(OC)c(OC)c3)nc3ccccc23)c(OC)c1
  -8, -17, 0.7, 14, -36, -0.8%

Back to the main list, repeating the two entries before the break.
Values in the order – CtBP-E1A inh, Six1-Eya2 blk, TRPML1 agonist, D2 ag, D2 PAM, PINK1 modulator
[44] COc1ccc(NC(=O)C2c3cc(OC)c(OC)cc3C(=O)N(C)C2c2cccnc2)cc1OC (configuration not stated)
  1, -2, -0.2, -1.3, 4, 0.4%
[45] CCOc1ccc(NC(=O)CN(C)C(=O)CSc2ccccc2)cc1OCC
  5, -17, -1.0, -8.4, -21, 4.1%
[46] Cc1nc2sc(C(c3cccc(F)c3)N3CC(C)OC(C)C3)c(O)n2n1 (configuration not stated)
  -4, 4, -0.2, -2.8, -2, 1.8%
[47] COc1ccc2ccccc2c1CNCc1ccc(C)cc1
  1, 0, 0.2, 5.6, -21, 5.9%
[48] COc1cccc(CNc2nc3nc4c(c(=O)n3[nH]2)CCC4)c1
  -2, 6, -0.4, -1.1, 16, 3.0%
[49] COC(=O)CNC(=O)C12CC3CC(C1)CC(c1ccc(C)cc1)(C3)C2
  7, 4, -0.2, -1.9, -3, 0.2%
[50] CC(Sc1nnnn1C)C(=O)Nc1ccc(Oc2ccccc2)cc1 (configuration not stated)
  -9, -4, 3.5, 0.2, -16, -2.1%
[51] CCOC(=O)c1c(NC(=O)CSc2nnnn2C)sc(C)c1-c1ccc(C)cc1
  -8, -16, 3.2, -2.1, -2, 10%[38.3 µM]
[52] Cc1cc(Br)c(NC(=O)C(C)Sc2nnnn2C)c(Br)c1 (configuration not stated)
  0, 2, 0.4, 0.3, -19, -0.9%
[53] Cc1[nH]n(C)c(=O)c1[N+](=O)[O-]
  -19, -1, nt, -2.2, -12, 0.9%
[54] O=C(Nc1cnc2sccn2c1=O)c1ccc(Cl)cc1Cl
  -1, 3, 0.5, -0.6, 1, 13%[38.3 µM]
[55] Cc1cc(=O)[nH]c2c1c(C)nn2C1CCOC(C)(C)C1 (configuration not stated)
  54, 0, -0.5, -1.5, 8, 2.9%[38.3 µM]
[56] COc1cccc(C2CCCN2Cc2nc(CCC(C)C)no2)c1 (configuration not stated)
  -5, 15, 0.7, -4.4, -14, 12%
[57] COCCN(C(=O)CSc1nnc(-c2ccco2)n1C)c1c(N)n(CC(C)C)c(=O)[nH]c1=O
  nt, 11, -0.2, -3.6, -1, -0.1%
[58] O=C(NC(CC(=O)N1CCN(c2ccccc2)CC1)c1ccccc1)c1ccccc1 (configuration not stated)
  0, -3, -1.1, -0.4, -22, 4.2%
[59] CC(=O)NC(CC(C)C)C(=O)O (configuration not stated)
  7, 1, -0.2, -0.3, -3, 0.4%
[60] Cc1nc(OCC(=O)c2ccc(Cl)cc2)c(C#N)c2c1COC(C)(C)C2
  1, 6, 3.9, 0.1, 6, 5.0%

Screening results: PubChem, National Center for Advancing Translational Sciences (NCATS)
